D2 potentiator – potentiates the human D2 dopamine receptor allosterically; P14416; DiscoveRx D2 beta-arrestin cells, luminescence, 90 min; 100% = 57 uM dopamine signal; potentiation, % (concentration not given with the values); 360,000 tested, 0.23% active; AID 624464; active = potentiation of 50% or more; inconclusive = 30% to 50%; inactive = 30% or less;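 also: compound concentration not given in the record; tested on top of an EC20 dose of dopamine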
Target sequence (P14416 whole entry, looked up): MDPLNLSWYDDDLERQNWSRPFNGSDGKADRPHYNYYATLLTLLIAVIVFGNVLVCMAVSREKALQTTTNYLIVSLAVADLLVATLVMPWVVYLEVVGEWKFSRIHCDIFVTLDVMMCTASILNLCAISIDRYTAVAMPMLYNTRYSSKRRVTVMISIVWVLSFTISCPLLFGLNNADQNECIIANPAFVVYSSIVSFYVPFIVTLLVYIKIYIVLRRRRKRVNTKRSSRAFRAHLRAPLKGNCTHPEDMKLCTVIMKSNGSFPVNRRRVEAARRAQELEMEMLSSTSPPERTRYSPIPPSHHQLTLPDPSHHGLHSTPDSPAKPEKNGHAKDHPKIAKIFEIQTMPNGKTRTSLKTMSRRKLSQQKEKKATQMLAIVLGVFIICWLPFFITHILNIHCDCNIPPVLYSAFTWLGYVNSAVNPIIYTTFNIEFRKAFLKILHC
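PathHunter beta-arrestin assay in DiscoveRx D2 cells. Compounds were added with an EC20 of dopamine (50 nM final) for 90 min at 37 deg C. Luminescence was read 1 h after detection reagent, with 57 uM dopamine as the EC100 control.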
TRPML1 agonist – agonists of human TRPML1 channel. Q9GZU1. TRPML1-expressing cells, Ca2+ dye fluorescence, FDSS; host cell line not named in the record; reference of the full effect not given here. activation, % (concentration not given with the values). 410,000 tested, 0.12% active. AID 624414; in the data active = activation above about 50%; inconclusive = about 30% to 50%; inactive = below about 30%; also: 0% is about no effect; the text of the record puts the active cut at 80%
Target sequence (Q9GZU1 whole entry, looked up): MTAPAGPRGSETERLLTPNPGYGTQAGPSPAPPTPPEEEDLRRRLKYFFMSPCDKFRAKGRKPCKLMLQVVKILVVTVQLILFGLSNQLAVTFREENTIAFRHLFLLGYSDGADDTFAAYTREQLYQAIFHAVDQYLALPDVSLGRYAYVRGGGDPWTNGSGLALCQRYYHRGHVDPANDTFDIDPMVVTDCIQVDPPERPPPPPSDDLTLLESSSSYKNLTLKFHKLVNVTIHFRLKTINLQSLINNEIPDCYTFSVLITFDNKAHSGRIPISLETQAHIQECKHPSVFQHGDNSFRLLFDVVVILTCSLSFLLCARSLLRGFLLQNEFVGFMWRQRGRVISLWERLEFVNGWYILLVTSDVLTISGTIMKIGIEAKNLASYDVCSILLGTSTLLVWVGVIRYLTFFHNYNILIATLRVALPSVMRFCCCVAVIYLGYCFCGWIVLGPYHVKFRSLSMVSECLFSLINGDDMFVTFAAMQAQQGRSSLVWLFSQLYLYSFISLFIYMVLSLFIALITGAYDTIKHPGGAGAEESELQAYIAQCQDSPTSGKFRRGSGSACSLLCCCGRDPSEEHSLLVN
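Calcium fluorescence on an FDSS kinetic reader gave the read-out. Tet-induced TRPML1-DL cells were plated overnight, dye-loaded (Ca8 with quencher, 45-90 min, room temperature, dark), then read 110 s after compound addition, and again 110 s after 4uM final 54-4 (EC80).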
TRPML1 inh – inhibitors of human TRPML1 channel. Q9GZU1. TRPML1-inducible cells, Ca2+ dye fluorescence, FDSS; stronger effect = lower value; inhibition of EC80 agonist-evoked calcium signal. activity change, negative = inhibition, % (concentration not given with the values). 390,000 tested, 0.02% active; in the data active means activity change below about -50%; inconclusive means about -30% to -50%; inactive means above about -30%;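 also: stimulus is agonist 54-4 at its EC80 concentration; % is scaled to controls: 0 for no effect and ±100 for the full control effect; compound concentration not given in the record; the text of the record puts the active cut at -80%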
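TRPML1-DL cells, Tet-induced overnight (~16 h, 37 °C) at 1,500 cells/well, were loaded with Ca8 no-wash dye plus quencher for 45-90 min at room temperature. Compounds were pinned during FDSS kinetic reading; agonist 54-4 at EC80 (4 uM final) then added.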
PINK1 modulator – PINK1 expression modulation; PINK1 immunofluorescence, high-content cytometry, 24 h; Potency, µM (doses to about 76.6 µM), for the others: at the top dose activation (PINK1 increase), hits mostly activators; 410,000 tested, 0.2% active; active = well fitted activation curve with a large enough effect; inconclusive = small, poorly fitted or top-dose-only effect; inactive = flat fitted curve, though single readings scatter; cell line not stated here;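 also: potency is read from the fitted curve at half-maximal effect; % of control where 0% means no effect; nearly all actives have a fitted effect of over 65% in size; a mitochondrial uncoupler was the plate control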
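Measures PINK1 amount and localization on or inside mitochondria by immunofluorescence. Stable cells get compounds at 5 concentrations for 24 hours before fixation and staining; CCCP controls included.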
D2 ag – activates the human D2 dopamine receptor; P14416; DiscoveRx PathHunter D2 beta-arrestin, luminescence, 90 min; 100% = 57 uM dopamine signal; activation, % (concentration not given with the values); 360,000 tested, 0.084% active; in the data active = activation above about 40%; inconclusive = about 15% to 40%; inactive = below about 15%; also: compound concentration not given in the record; the text of the record calls up to 30% inactive
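DiscoveRx PathHunter D2 beta-arrestin cells (2,100/well) attached overnight, then compound-stimulated 90 min at 37 C in HBSS/10 mM HEPES/0.1% Tween-20 buffer; beta-galactosidase complementation read by luminescence after 1 h at ambient temperature. Dopamine 57 uM final (EC100) as control.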
Six1-Eya2 blk – blocks human Six1 binding to Eya2 | Q15475+O00167 | AlphaScreen GST-Six1/His-Eya2 binding, biochemical; stronger effect = lower value; control for the full effect not named in the record | 360,000 tested, 0.56% active | activity change, % (concentration not given with the values); in the data active = activity change below about -65%; inconclusive = about -30% to -65%; inactive = above about -30%; also: % is scaled to controls: 0 for no effect and ±100 for the full control effect
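Six1/Eya2 binding was read as AlphaScreen signal after compounds were pinned into GST-Six1 plus His-tagged Eya2 (5X stock 250/500 nM) in pH 8.0 Tris/NaCl/TCEP buffer, beads added, then incubated 1 h, 37 C, dark.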
Active calls of the source: *; ? = inconclusive; . = not tested or not shown; & = joins results of further samples; [ ] = remark or other dose.

SMILES	D2 potentiator	TRPML1 agonist	TRPML1 inh	PINK1 modulator	D2 ag	Six1-Eya2 blk
Cc1ccc(CNC(=O)c2ccc(F)c(S(=O)(=O)N3CCOCC3)c2)cc1	18.7	-0.2	-6.2	?	-3.4	11.7
COCCNc1nc(Nc2ccc(C)cc2C)c2sccc2n1	-1.3	-0.6	.	1.5%	4.1	-1.7
COc1cc(C(C)=O)ccc1OCC(=O)Nc1ccc2nc(C)sc2c1	-1.3	-0.6	-1.5	11.4%	0.6	-7.9
COc1ccc(-n2c(SCC(=O)NCc3ccc(F)cc3)nc3c([nH]c4ccccc43)c2=O)cc1	.	0.8	9.4	1.9%	.	.
CCOC(=O)c1ccc(CN(Cc2ccc(C)cc2)S(=O)(=O)c2cccc([N+](=O)[O-])c2)cc1	-13.2	1.0	39.8	7.3%	-1.0	2.1
O=C(Nc1cccc(S(=O)(=O)Nc2ccc(Cl)cc2)c1)c1ccccn1	0.4	2.2	-9.9	1.6%	-1.6	3.9
Cc1nc2ncnn2c(C)c1CCC(=O)N1CCN(c2cccc(Cl)c2)CC1	.	-0.9	-8.3	1.2%	.	.
CCC(=O)NC1(C(F)(F)F)C(=O)Nc2c1c(=O)[nH]c(=O)n2CC(C)C (configuration not stated)	-14.0	-0.9	-2.9	1.4%	-3.8	35.3
COc1ccc(CCn2c(C)cc(C(=O)CSc3nnnn3-c3ccccc3)c2C)cc1OC	5.6	2.4	3.6	7.5%[38.3 µM]	-2.1	-0.8
O=C(NCc1ccccc1)c1ccc(S(=O)(=O)Nc2cccc(C(F)(F)F)c2)cc1	-9.4	.	.	2.3%	1.1	-0.5
Cc1cccc(C)c1NC(=O)CSc1nnc(-c2ccco2)n1N	-6.7	-0.3	4.9	.	-1.7	17.9
Cc1ccc(-c2csc(Cc3nc(-c4cc5ccccc5oc4=O)cs3)n2)cc1	-10.7	-0.3	-12.0	8.2%[38.3 µM]	-0.5	5.4
CNC(=O)c1ccc(-c2ccc(OC)cc2)s1	18.2	0.6	-4.4	2.0%	-2.0	-3.1
Cc1ccc(C(=O)Nc2cccc(C(=O)O)c2)cc1	-4.9	1.7	7.9	-1.4%	-1.8	11.4
O=S(=O)(Nc1nc2ccccc2nc1NCC1CCCO1)c1ccccc1 (configuration not stated)	-1.5	0.6	-26.1	1.5%	0.1	5.5
COc1ccc(OC)c(N(CC(=O)N2CCN(Cc3ccccc3)CC2)S(C)(=O)=O)c1	-33.6	.	.	1.4%	3.1	-9.4
COc1ccc(S(=O)(=O)Nc2ccccc2C(N)=O)cc1OC	0.0	-0.2	15.4	-0.5%	-3.7	1.3
OC(c1ccc(Cl)c(F)c1)c1ncc(-c2cccc(C(F)(F)F)c2)[nH]1 (configuration not stated)	-1.1	0.8	.	?	3.3	-2.9
CCN(CC)c1ccc(/C=C/c2cc(-c3ccccc3)c3ccccc3n2)cc1	-2.6	-0.2	-18.7	1.0%	1.9	78.5
COc1ccc(NC(=O)CC2C(=O)N(C)C(=S)N2Cc2ccco2)cc1 (configuration not stated)	-23.6	1.5	-1.0	2.5%	-6.3	-8.9
O=C(CNC(=O)c1ccc(F)cc1)OCc1cc(=O)n2nc(C3CC3)sc2n1	.	0.3	-22.9	0.0%	.	.
COCCCNC(=O)Cn1nc(-c2cccc(OC)c2)ccc1=O	-4.1	0.4	-8.6	-0.3%	-6.4	8.4
CCc1nccn1S(=O)(=O)c1cc(OC)c(Cl)cc1OC	-9.5	-0.4	-3.7	0.2%	1.1	7.6
COc1cc(C2Nc3cc(C)c(C)cc3NC3=C2C(=O)CC(C)(C)C3)ccc1OC(C)=O (configuration not stated)	-5.8	-0.2	-8.2	2.3%	4.3	19.3
Cn1c(=O)oc2cc(S(=O)(=O)Nc3cccc(F)c3)ccc21	-2.9	0.6	-1.5	1.3%	-2.8	-0.8
Additional results
SMILES	D2 potentiator	TRPML1 agonist	TRPML1 inh	PINK1 modulator	D2 ag	Six1-Eya2 blk
Cc1ccc(N(CCO)C(=S)Nc2ccccc2)cc1	2.8	-0.1	9.5	0.3%	6.4	0.1
O=C1CSCC(=O)N1c1ncc(C(F)(F)F)cc1Cl	-12.9	1.1	54.1	-0.2%	1.5	1.0
O=C(OCCCc1cc2ccccc2c(=O)o1)c1ccccc1C(F)(F)F	-14.2	2.1	-15.1	-0.3%	1.6	16.5
CCCCc1nn2c(=O)cc(COC(=O)c3ccc(NC(=O)c4ccccc4Cl)cc3)nc2s1	.	0.9	-11.9	0.1%	.	.
O=C(c1ccccc1)N1CCN(C2CC3CCC2C3)CC1 (configuration not stated)	-7.2	0.5	17.3	-3.2%[38.3 µM]	-1.4	1.9
COc1cccc(-c2nc(CS(=O)(=O)CC(=O)Nc3cccc(C(C)=O)c3)c(C)o2)c1	-10.0	-0.9&0.6	2.9&21.2	0.7%&-2.0%	-5.0	-3.7
O=C(/C=N/NC(=O)c1ccc(Cl)cc1Cl)c1ccccc1	-24.8	1.7	?	14.5%	-3.2	-20.5
O=C(CCC1CCCC1)Nc1cccn(Cc2ccccc2Br)c1=O	-7.0	2.1	62.2	2.6%	1.0	8.5
Cc1nccn1CCC1CCCCN1C(=O)CCc1nnc(-c2ccsc2)o1 (configuration not stated)	-5.9	0.2	-2.8	-0.4%	-2.6	-2.2
COC(=O)c1cc(Cl)c(NC(=O)Cc2ccccc2)cc1OC	-17.3	-0.6	1.6	1.8%	2.0	7.8
Cc1ccc(NC(=S)N/N=C/c2ccc(Cl)c([N+](=O)[O-])c2)cc1	-8.6	0.5	21.4	12.7%	1.1	-1.9
CCOc1cc(-c2cc(-c3ccc(OC)cc3)nc(N)c2C#N)ccc1O	-2.3	-0.6	-14.6	14.6%	1.0	-2.2
CCc1nnc(NC(=O)c2cc(S(=O)(=O)N3CCOCC3)ccc2N2CCCCC2)s1	5.2	0.2	-19.4	1.2%	1.4	-6.7
NC(=O)CCCc1nc(-c2ccccc2)no1	-11.7	-0.4	-16.1	-0.2%	0.9	0.5
CN1CCC2CC1c1cc(-c3ccc(C(F)(F)F)cc3)ccc12 (configuration not stated)	-9.9	2.5	20.7	-1.3%	1.3	-4.1
O=C(NCC(=O)N(c1ccc(F)cc1)C(C(=O)NC1CCCC1)c1cccnc1)c1cccs1 (configuration not stated)	2.0	-0.5	5.1	0.8%	1.2	0.7
Cc1cccc(C)c1NC(=O)C(c1ccccc1)N1CCOCC1 (configuration not stated)	-12.0	1.2	-12.2	-2.7%	-2.3	11.9
CCOC(=O)Cn1cnc2c(cnn2-c2ccc(C)c(C)c2)c1=O	.	0.6	-5.6	0.0%	.	.
CC1CCc2[nH]c3ccc(C(=O)N4CCCC(C(F)(F)F)C4)cc3c2C1 (configuration not stated)	-31.8	0.2	36.8	23.8%	-1.3	-17.1
COc1cccc(C(=O)Nc2ccncc2)c1OC	-2.5	-0.5	-16.3	-1.0%	-4.5	-1.2
O=C(Nc1cc2c3c(c1)CC(=O)N3CCC2)c1ccccc1C(F)(F)F	18.7	-0.3	13.5	-2.0%	-1.2	-10.2
CC(=O)c1cn(CC(=O)NCC2CCCO2)c2ccccc12 (configuration not stated)	-13.1	-0.3	-7.6	1.3%	-2.8	0.5
CC(=O)Nc1c(O)c2ccccc2[nH]c1=O	-22.3	0.3	-10.0	1.4%	-4.5	20.2
CC1CCc2noc(NC(=O)c3ccc([N+](=O)[O-])cc3)c2C1 (configuration not stated)	.	-0.2	-5.3	0.7%	.	.
Cc1cccc(C)c1NC(=O)COC(=O)c1nonc1N	-11.9	-0.5	-9.6	.	-3.9	-1.9
The list continues:
SMILES	D2 potentiator	TRPML1 agonist	TRPML1 inh	PINK1 modulator	D2 ag	Six1-Eya2 blk
Cc1nc2c(OCc3ccc(Cl)cc3)cccn2c1N(C)C(=O)CCC1CCCC1	-7.1	2.7	94.8	0.6%	-1.9	4.1
CCN1CCN(C(=S)Nc2ccc(Cl)cc2)CC1	-15.3	0.5	-0.2	0.7%	-0.5	-1.2
CC(=O)c1ccc(S(=O)(=O)N(C)CC(=O)N2CCCCCC2)cc1	-2.4	1.4	18.3	-3.4%	3.6	4.7
COc1ccc(CN2CCC[C@]3(N[C@H](c4ccc(OC)cc4)[C@@H]4C(=O)N(C)C(=O)[C@@H]43)C2=O)cc1	4.5	-0.1	-8.7	0.4%	-9.6	5.7
O=c1[nH]c(Nc2ccccn2)cc2ccccc12	25.9	-1.3	26.8	7.6%	8.6	10.8
CCCCNC(=O)C1(C)CCN1C(=O)c1ccncc1 (configuration not stated)	-5.3	0.3	-3.9	0.1%	-6.9	3.5
NCCCC(=O)N1c2ccccc2Sc2ccc(Cl)cc21	-12.6	0.3	10.1	2.1%	-2.8	2.9
CC(=O)Nc1ccc(N=NN2CCOCC2)cc1	11.1	0.5	3.1	0.5%	1.0	4.4
O=C(O)C1CCN(Cc2cccnc2)CC1	-5.2	-0.2	11.9	2.3%	5.0	6.2
C[N+](C)(C)C(Cc1ccccc1)C(=O)[O-] (configuration not stated)	6.7	.	.	-0.6%	10.8	-1.7
CC1CCCC(C(=O)O)N1C(=O)CCSSCCC(=O)N1C(C)CCCC1C(=O)O (configuration not stated)	-2.7	-0.2	28.2	0.2%	-0.6	4.7
CCn1ncc(Br)c1C(=O)Nc1cccc(F)c1	-8.6	0.4	-2.4	0.6%	-5.9	9.5
CC(C)CC(NC(=O)c1ccco1)C(=O)Nc1ccc2c(c1)OCCO2 (configuration not stated)	-5.5	3.0	-26.7	-3.3%	-1.3	-6.3
Cc1cccc(NC(=O)Nc2nnc(N(C)Cc3ccccc3)s2)c1	.	-0.7	4.3	-2.3%	.	.
COc1ccc(CN2C(=O)CCC2(C)c2nnnn2-c2ccc3c(c2)OCCO3)cc1OC (configuration not stated)	.	-0.6	.	1.8%	.	1.8
COc1ccccc1-n1nnnc1S(=O)(=O)Cc1ccc(Cl)cc1	-36.6	1.2	-15.8	-4.3%	-7.2	10.0
CCN(CC)C(=O)OCc1c(-c2ccccc2)ncc2ccccc12	-10.3	1.1	56.9	7.2%	-2.4	2.7
COc1ccc(N(CC(=O)N2CCN(Cc3ccccc3)CC2)S(C)(=O)=O)cc1Cl	-6.8	-0.2	-9.6	1.3%	5.0	11.7
O=C(N/N=C/c1ccc([N+](=O)[O-])cc1)c1cccc(N2CCCC2=O)c1	0.8	-0.6	-22.5	-2.4%	0.4	-7.3
O=C(c1ccc(OC2CCN(Cc3cccc(OCCO)c3)CC2)cc1)N1CCCC1	-19.4	-0.3	-4.5	-1.4%	-0.4	1.3
CC1CCCN(S(=O)(=O)c2ccc(C(=O)Nc3nnc(-c4ccncc4)o3)cc2)C1 (configuration not stated)	-5.1	0.1	-0.7	5.3%	-0.8	-12.3
Cc1ccsc1CN(C)C(=O)CN1C(=O)NC(c2ccccc2)(c2ccccc2)C1=O	-4.2	0.8	15.0	-1.8%	6.1	-7.5

Screening data: PubChem, National Center for Advancing Translational Sciences (NCATS)
